High-throughput results from PubChem BioAssay.
Marburg entry inh – inhibitors of Marburg virus binding or cell entry; Marburg virus pseudotyped entry inhibition, cell reporter; control for the full effect not named in the record; about a third of the inactives were read at about 46 µM; Potency, µM (highest dose often 37.8 µM), for inactives: at the top dose activity change, negative = inhibition, most hits filed as inhibitors; 300,000 compounds, 1.8% hits; AID 540276; active = well fitted inhibition curve with a large enough effect; inconclusive = small, poorly fitted or top-dose-only effect, or effect the other way; inactive = flat fitted curve, though single readings scatter; tested in HEK293 cells; about a fifth of its hits are not listed in these tables; note: % is set by controls: 0 for no effect and ±100 for the full control effect; luciferase read-out
NS1 function inh – inhibitors of influenza NS1 protein function | S. cerevisiae slowed by influenza A NS1, growth recovery by OD600 | Potency, µM (doses to about 46.1 µM), for inactives: at the highest dose activity, positive = more growth | 270,000 compounds, 0.4% hits; note: actives are rising curves; nearly all actives have a fitted effect of over 50% in size
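S. cerevisiae expressing influenza A NS1, grown in glucose, washed, then diluted 1:100 into pH 6.0 -URA galactose medium with 23 nl compound. Growth recovery read as OD600; NS1-free strain serves as control.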
RE007 growth inh – less growth of the S. pombe RE007 Vpr strain; S. pombe RE007 Vpr strain, BacTiter-Glo ATP luminescence, 24 h; control for the full effect not named in the record; 360,000 compounds, 0.21% hits; Potency, µM (top dose mostly 92.2 µM), without a hit: at the top dose activity change, negative = less growth; AID 651644; active = well fitted falling curve with a large enough effect; inconclusive = small, poorly fitted or top-dose-only effect; inactive = no such curve, though single readings can be large or run the other way;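 note: % is set by controls: 0 for no effect and ±100 for the full control effect; nearly all actives have a fitted effect of over 50% in size; the assay follows cell death caused by Vpr and the record does not say whether a fall means rescue or toxicity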
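Fission yeast RE007 carrying one integrated HIV-1 vpr copy, seeded at OD 0.01 in PMG+AL medium with 23 nL pinned compound. Grown 24 h at 30 degrees; viability read by BacTiter-Glo luminescence after 5 min.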
SARS PLP yeast – blocks SARS-CoV papain-like protease in a yeast assay | Potency, µM (titrated, usually from 32.9 µM), for the others: top-dose activity, positive = growth rescue | S. cerevisiae expressing SARS-CoV PLpro, growth rescue; control for the full effect not named in the record | 330,000 compounds, 0.19% hits | AID 485353; note: 0% is about no effect; nearly all actives have a fitted effect of over 55% in size; growth read by luminescence after 48 h
Cruzain noTriton – inhibitors of Trypanosoma cruzi cruzain without detergent. 200,000 compounds, 2.3% hits. purified cruzain, Z-FR-AMC fluorescence, no detergent. Potency, µM, for inactives: max response, negative = inhibition, usual class: inhibitors. AID 1476; active = well fitted curve in the direction sought with a large enough effect; inconclusive = small, poorly fitted or top-dose-only effect, or another doubt; inactive = no such curve, though single readings can be large; an effect the other way counts as inactive or inconclusive;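 note: plate controls were enzyme without inhibitor for no effect and buffer without enzyme for full effect; nearly all actives have a fitted effect of over 40% in size; top concentration of the series not given in the record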
Target sequence (P25779 123-467 limits assumed): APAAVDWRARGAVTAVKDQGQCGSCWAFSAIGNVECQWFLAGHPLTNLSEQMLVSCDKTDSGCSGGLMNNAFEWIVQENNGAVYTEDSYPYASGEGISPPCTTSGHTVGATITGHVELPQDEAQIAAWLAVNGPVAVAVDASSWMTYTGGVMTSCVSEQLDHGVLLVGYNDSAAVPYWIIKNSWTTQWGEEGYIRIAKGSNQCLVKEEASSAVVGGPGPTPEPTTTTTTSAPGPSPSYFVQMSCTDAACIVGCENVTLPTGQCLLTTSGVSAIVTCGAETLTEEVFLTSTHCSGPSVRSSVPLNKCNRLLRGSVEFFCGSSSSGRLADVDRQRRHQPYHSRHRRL
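Purified cruzain at 1.5 nM, pre-incubated 15 min with compound at room temperature in 100 mM sodium acetate pH 5.5, 5 mM DTT, 0.00005% Triton X-100. Reaction started with 2 uM Z-FR-AMC; AMC fluorescence increase over 60 s gives rate.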
Cruzain Triton – blocks cruzain activity in presence of Triton detergent. 200,000 compounds, 0.43% hits. P25779. purified cruzain, Z-FR-AMC fluorescence, 0.01% Triton. AID 1478. Potency, µM, for inactives: max response, negative = inhibition, actives largely listed as inhibitors; active = well fitted curve in the direction sought with a large enough effect; inconclusive = small, poorly fitted or top-dose-only effect, or another doubt; inactive = no such curve, though single readings can be large; an effect the other way counts as inactive or inconclusive;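 note: plate controls were neutral wells for no effect and buffer without enzyme for full effect; nearly all actives have a fitted effect of over 40% in size; top concentration of the series not given in the record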
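Sodium acetate buffer (100 mM, pH 5.5) containing 5 mM DTT and 0.01% Triton X-100 hosted 1.5 nM cruzain and test compound for 15 min at room temperature. Cleavage of 2 uM Z-FR-AMC was then tracked by fluorescence.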
StopGo reporter – lowers the luciferase signal of an FMDV 2A StopGo reporter; human cells with a luciferase reporter of 2A StopGo recoding; control for the full effect not named in the record; 410,000 compounds, 1.2% hits; Potency, µM (series often up to 57.9 µM), for inactives: at the highest dose signal change, negative = less light; active = well fitted falling curve with a large enough effect; inconclusive = small, poorly fitted or top-dose-only effect; inactive = no such curve, though single readings can be large or run the other way; tested in HEK293T cells; note: % is set by controls: 0 for no effect and ±100 for the full control effect; nearly all actives have a fitted effect of over 45% in size; luciferase light after 4 h
LASV entry inh – Lassa virus entry inhibition; Lassa virus pseudotype entry inhibition, cell reporter; control for the full effect not named in the record; Potency, µM (top dose mostly 37.9 µM), for the others: at the top dose activity change, negative = inhibition, usual class: inhibitors; 300,000 compounds, 1.2% hits; AID 540256; active means well fitted inhibition curve with a large enough effect; inconclusive means small, poorly fitted or top-dose-only effect, or effect the other way; inactive means flat fitted curve, though single readings scatter; tested in HEK293 cells; note: % is set by controls: 0 for no effect and ±100 for the full control effect; nearly all actives have a fitted effect of over 50% in size; luciferase read-out
* = called active by the depositor; ? = inconclusive; . = no result given; & = joins results of further samples; [ ] = dose if it differs, or a comment. Unless noted, calls come from the whole dose curve; as a rule, active means well fitted rising curve with a large enough effect; inconclusive means small, poorly fitted or top-dose-only effect; inactive means no such curve, though single readings can be large or run the other way. Potency is the fitted concentration of half-maximal effect.

Order of values: Marburg entry inh | NS1 function inh | RE007 growth inh | SARS PLP yeast | Cruzain noTriton | Cruzain Triton | StopGo reporter | LASV entry inh
> CC1CCCC(NC(=O)c2cccc(S(=O)(=O)N3CCCCC3)c2)C1C (stereo not given)
→ ? | 13% | 9% | 1% | . | . | 10% | -5%[46.1 µM]
> CC(NS(=O)(=O)c1ccc2c(c1)CC(=O)N2C)c1ccccc1 (stereo not given)
→ -9%[46.1 µM] | 17% | -5% | -1% | . | . | -8% | 8%
> O=C(Nc1ccc2oc(-c3cccnc3)nc2c1)c1cc2ccccc2o1
→ ? | -23% | -2% | -5% | -9% | -5.7% | -3% | 0%
> COc1ccc(-c2c3c(nc4sc5c(=O)[nH]c(C)nc5c24)CCC3)cc1
→ ? | 9% | 19% | -4% | -27% | 2.0% | 0% | 8%
> COc1ccc(-c2cnc(C)o2)cc1S(=O)(=O)Nc1ccc(NC(C)=O)cc1
→ . | . | . | . | -3% | -2.3% | -4% | ?
> CC(C)N=C1NN=C(c2cccs2)C(CC(=O)O)S1 (stereo not given)
→ 26% | 3% | -6% | 0% | . | . | 2% | -2%
> CC1C(OC(=O)CCC(=O)NC(C)(C)CO)O[C@H]2OC3(C)CC[C@H]4[C@H](C)CCC1C24OO3 (stereo not given in full)
→ ? | -54% | -2% | -7% | . | . | 22% | ?
> O=C(CSCc1ccccc1)N/N=C/c1ccccc1OCc1ccccc1
→ ? | -24% | 3% | -6% | 1% | -0.5% | . | -5%
> O=C1/C(=C\Nc2ccccc2)CCN1c1ncccn1
→ 24% | 3% | -5% | -4% | -5% | -3.8% | 17% | -16%
> Cc1nc(Nc2ccc(O)cc2)c2c3c(sc2n1)CCCC3
→ ? | -8% | -2% | -1% | . | . | -21% | ?
> COc1ccccc1NC(=O)c1ccc2c(=O)n3c(nc2c1)CCC3
→ 32% | . | 7% | . | . | . | 21% | ?
> C=C(C)COc1ccc2c(CC)cc(=O)oc2c1C
→ ? | -1% | ? | -34% | 11% | -4.9% | 2% | 1%
> O=C(Nc1ccc2c(c1)OCCO2)C(c1ccc(F)cc1)N1CCCCC1 (stereo not given)
→ ? | -61% | -13% | 13% | -1% | 6.2% | 28% | 10%
> CC1CCN(CCC(=O)N2CCCc3c2c(=O)oc2ccc(O)cc32)CC1
→ ? | -6% | -9% | 0% | -1% | -1.2% | ? | 10%
> CCOC(=O)N1CCC(N2CCCC(C(=O)c3cc(F)ccc3OC)C2)CC1 (stereo not given)
→ ? | -7% | 8% | -1% | . | . | -8% | 7%[46.1 µM]
> Cc1cccc(C2(c3cccc(C)c3)CC2C(=O)Nc2ccc([N+](=O)[O-])cc2O)c1 (stereo not given)
→ 13µM* | 6% | 0% | -7% | -11% | -7.2% | ? | ?
> Cc1noc(C(=O)Nc2cccnc2)c1Cl
→ . | -1% | -2% | -4% | 1% | 6.2% | -6% | .
> Cn1c(=O)c2sccc2n(Cc2ccc(Br)cc2)c1=O
→ -13%[46.1 µM] | 5% | 2% | 0% | . | . | ? | -4%[46.1 µM]
> COc1ccc(S(=O)(=O)Nc2ccccc2C(=O)N2CCOCC2)cc1Br
→ -19% | -6% | -1% | -3% | . | . | -12% | -13%
> O=C(NCCCn1ccnc1)c1csc2ccccc12
→ -2% | 1% | 0% | -2% | -3% | 5.3% | 8% | 26%
> COC(=O)C1=C(C)N(c2cc(Cl)cc(Cl)c2)C(=O)C1
→ -24% | 30% | -17% | -1% | 1% | 0.9% | ? | 0%
> Cc1ccc2cccc(NC(=O)C(C)Oc3ccc(Cl)cc3Cl)c2n1 (stereo not given)
→ ? | . | . | . | 2% | -1.7% | -27% | -6%[46.1 µM]
> NC(Cc1c[nH]c2ccccc12)C(=O)NCc1ccccc1 (stereo not given)
→ ? | ? | 2% | 3% | . | . | 1% | -16%[46.1 µM]
> Cc1c(C(=O)N2CCCCC2)c(S(=O)(=O)N2CCC(C)CC2)c(C)n1C
→ ? | 0% | -9% | 11% | . | . | 4% | -13%[46.1 µM]
> O=C(O)CC1(CC(=O)NCc2cc(F)cc3c2OCOC3)CCCCC1
→ 1% | 1% | -12% | 0% | . | . | 2% | -2%
> CCC1(Oc2ccccc2)C(=O)NC(=O)NC1=O
→ 3%[46.1 µM] | . | -7% | . | . | . | 0% | 0%[46.1 µM]
> COC(=O)c1c(N)c(C#N)c(C)n1-c1ccccc1
→ 7% | -5% | 6% | -3% | -6% | 4.5% | -10% | 10%
> O=C(Nc1ccc(S(=O)(=O)NCC2CCCO2)cc1)c1cccc(F)c1 (stereo not given)
→ -14%[46.1 µM] | -4% | 11% | -1% | . | . | 29% | ?
> COC(=O)c1ccc(/C=N/NC(=O)C2CC(=O)N(c3ccc(OC)cc3)C2)cc1 (stereo not given)
→ -23% | 3% | ? | -5% | . | . | 14% | -26%
> O=C1NC(c2ccc3c(c2)OCO3)Oc2ccccc21 (stereo not given)
→ -11% | 7% | -12% | -3% | -3% | -0.7% | 4% | 21%[14.3 µM]
> CCCCNC(=S)N1CCn2cccc2C1c1cccnc1 (stereo not given)
→ 1% | . | -25% | -11% | . | . | 13% | -5%
> c1ccc(-c2ccc(-n3ccnc3)cc2)cc1
→ 3% | -129% | 28µM* | -11% | -2% | 0.3% | . | 1%
> CC(C)CNC(=O)c1cc(=O)[nH]c2ccc(S(=O)(=O)Nc3ccc(F)cc3)cc12
→ ? | 1% | -8% | 2% | . | . | 42%[activator] | 5%[46.1 µM]
> O=C(c1ccncc1)N1CCN(CCc2ccccc2)CC1
→ . | 10% | 5% | -5% | . | . | -11% | .
> CCN(c1ccc(OC)cc1)S(=O)(=O)c1nnc(NC(=O)c2ccccc2Cl)s1
→ . | 8% | -2% | -1% | -5% | -4.3% | -14%&-4% | -15%[46.1 µM]
> O=C(NCc1cccc(OC(F)(F)F)c1)C1CCC(=O)N(Cc2cccc(F)c2)C1 (stereo not given)
→ . | 7% | 8% | 3% | . | . | -2% | .
> CC(=O)OC(C(=O)n1nc(C)cc1C)c1ccccc1 (stereo not given)
→ 1% | -11% | 31% | . | -12% | -2.7% | 6% | 14%
> CCCCCN(C(=O)CCC(=O)OCc1ccccc1C)c1c(N)n(CCCC)c(=O)[nH]c1=O
→ -29% | . | -2% | -5% | . | . | -5% | 0%
> COc1ccc2c(c1)c1ncn(CCN3CCNCC3)c(=O)c1n2C
→ ? | ? | -8% | 3% | -5% | -16% | 1% | 1%
> Cc1cc(-c2ccc(Br)s2)nc(-n2cccc2)n1
→ -13%[46.1 µM] | 3% | 11% | 0% | . | . | -4% | 0%
> CC(=O)CCc1ccc(OC(=O)c2cccnc2)cc1
→ 17%[46.1 µM] | 3% | -22% | -26% | -10% | 2.2% | -11% | -3%
> CC[n+]1ccc(/C=C2\Sc3ccccc3N2CCCS(=O)(=O)[O-])c2ccccc21
→ 29%[46.1 µM] | 0% | -5% | 1% | . | . | 3% | 2%
> O=C(NCC(=O)N(Cc1ccccc1)C(C(=O)NC1CCCC1)c1ccncc1)c1ccco1 (stereo not given)
→ -6% | -22%[9.22 µM] | -13% | 15% | -13% | 6.5% | 5% | ?
> c1ccc(-c2cnnc(N3CCCCC3)n2)cc1
→ ? | -56% | -12% | -9% | -9% | -8.4% | 37%[activator] | 12%
> CC(OC(=O)C1CCCCC1)c1nc2ccccc2[nH]1 (stereo not given)
→ ? | -29% | 2% | -45% | -4% | -6.3% | -20% | -18%
> CCOc1ccccc1NC(=O)Cn1nc(N2CCN(c3ccccc3)CC2)ccc1=O
→ . | . | . | . | ? | -5.5% | -25% | -6%[46.1 µM]
> Cn1c(SCc2ccc(Cl)cc2)nnc1-c1ccc2nonc2c1
→ . | -1% | 32% | -1% | . | . | 0% | .
> Cc1nc2ncnn2c(C)c1Cc1ccc(Cl)cc1
→ 15% | 5% | 4% | 12% | 0% | -4.8% | -18% | ?
> CCc1ccccc1NC(=S)N(CCCN1CCOCC1)Cc1ccccn1
→ 0% | 6% | -11% | 2% | -1% | -0.3% | -3% | 5%
> O=C(O)CCn1c(-c2ccccn2)nc2ccccc21
→ 21%[46.1 µM] | 14% | 0% | ? | . | . | 4% | 2%[46.1 µM]
> CCOC(=O)c1c(NC(C)=O)sc2c(OCCN(CC)CC)c(Br)ccc12
→ . | -4% | 5% | 1% | . | . | -3% | .
> CCN1CCN(C(=S)Nc2ccc3nc(N4CCN(CC)CC4)cc(C)c3c2)CC1
→ ? | 21% | -17% | 9% | 7% | -4.9% | -10% | ?
> Cc1c(C(=O)OC2CCCCC2)[nH]c2c1C(=O)CC(C)(C)C2
→ 14%[46.1 µM] | 1% | -6% | . | -2% | 2.4% | 5% | 0%
> O=C(CCCCC(=O)NCCc1ccccc1)NCCc1ccccc1
→ 18% | -19% | -4% | 0% | . | . | 7% | ?
> COc1cccc(C(=O)COC(=O)CCCC(=O)NC2CCCCC2)c1
→ 17% | 2% | -3% | 6% | . | . | -17% | -1%
> COc1c(C)cc(Br)cc1C(=O)Nc1ccccc1N1CCN(C(=O)c2ccccc2)CC1
→ -17%[46.1 µM] | 3% | -9% | 1% | . | . | 0% | .
> Cc1ccc2nc(SC(Cc3cc(Cl)ccc3Cl)C(=O)O)[nH]c2c1 (stereo not given)
→ . | . | . | . | -7% | -3.3% | -11% | -6%[46.1 µM]
> Cc1ccc(S(=O)(=O)/N=C(\Nc2cccc(C)c2)Nc2nc(C)cc(C)n2)cc1
→ 5% | 1% | -2% | 13% | -10% | 0.3% | 14% | 15%
> CSCCC(NC(=O)CCC(=O)OC1CC[C@H]2[C@@H]3CC[C@H]4CC(=O)CC[C@]4(C)[C@H]3CC[C@]12C)C(=O)O (stereo not given in full)
→ . | -2% | 10% | 1% | . | . | 0% | .
> CSc1nc2ccc(S(=O)(=O)NC3CCCCC3)cc2s1
→ ? | -143% | 12% | -13% | -1% | -6.5% | 50%[activator] | -16%
> COC(=O)C=C1CCC2C3CC(F)C4(O)CC(=O)CCC4(C)C3C(=O)CC12C (stereo not given)
→ -4%[46.1 µM] | . | 20% | . | . | . | -15% | -3%[46.1 µM]
